D2 ag = activates the human D2 dopamine receptor | activation, % (test concentration not listed) | 360,000 compounds, 0.084% hits | P14416 | AID 624465 | DiscoveRx PathHunter D2 beta-arrestin, luminescence, 90 min; 100% = 57 uM dopamine signal; in the data active = activation above about 40%; inconclusive = about 15% to 40%; inactive = below about 15%; also: compound concentration not given in the record; the text of the record calls up to 30% inactive
Target sequence (P14416 whole entry, looked up): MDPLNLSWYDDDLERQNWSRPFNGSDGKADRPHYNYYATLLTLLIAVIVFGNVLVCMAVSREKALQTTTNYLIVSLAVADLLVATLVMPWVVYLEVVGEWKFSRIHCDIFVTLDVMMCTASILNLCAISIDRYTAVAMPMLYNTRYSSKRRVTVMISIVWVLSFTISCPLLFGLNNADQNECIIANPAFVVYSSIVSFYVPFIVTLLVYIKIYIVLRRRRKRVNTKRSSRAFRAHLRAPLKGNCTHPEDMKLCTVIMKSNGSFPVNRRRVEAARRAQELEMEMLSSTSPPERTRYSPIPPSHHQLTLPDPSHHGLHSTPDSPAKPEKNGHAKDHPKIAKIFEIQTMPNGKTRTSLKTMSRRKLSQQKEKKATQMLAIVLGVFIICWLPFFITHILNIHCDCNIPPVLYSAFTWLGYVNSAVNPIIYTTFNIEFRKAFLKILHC
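DiscoveRx PathHunter D2 beta-arrestin cells (2,100/well) attached overnight, then compound-stimulated 90 min at 37 C in HBSS/10 mM HEPES/0.1% Tween-20 buffer; beta-galactosidase complementation read by luminescence after 1 h at ambient temperature. Dopamine 57 uM final (EC100) as control.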
D2 PAM = potentiates the human D2 dopamine receptor allosterically; AID 624464; 360,000 compounds, 0.23% hits; P14416; potentiation, % (test concentration not listed); DiscoveRx D2 beta-arrestin cells, luminescence, 90 min; 100% = 57 uM dopamine signal; active = potentiation of 50% or more; inconclusive = 30% to 50%; inactive = 30% or less;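 also: compound concentration not given in the record; tested on top of an EC20 dose of dopamine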
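PathHunter beta-arrestin assay in DiscoveRx D2 cells. Compounds were added with an EC20 of dopamine (50 nM final) for 90 min at 37 deg C. Luminescence was read 1 h after detection reagent, with 57 uM dopamine as the EC100 control.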
CtBP-E1A blk = blocks the CtBP interaction with E1A; AlphaScreen GST-E1A/His-CtBP binding, 1536-well; hits give low values; control for the full effect not named in the record; activity change, % (test concentration not listed); 340,000 compounds, 0.49% hits; in the data active means activity change below about -65%; inconclusive means about -30% to -65%; inactive means above about -30%; also: % is scaled to controls: 0 for no effect and ±100 for the full control effect
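Steps: dispense buffer (Tris pH 8.0, NaCl 300 mM, TCEP 1 mM, BSA, Tween 20); add 5X protein mix (GST-E1A, His-CtBP, 125 nM each); pin 23 nL compound; 2 h at 37 °C, dark; add 5X beads (50 ug/mL); 1 h; read.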
Six1-Eya2 inh = blocks human Six1 binding to Eya2 | AlphaScreen GST-Six1/His-Eya2 binding, biochemical; hits give low values; control for the full effect not named in the record | activity change, % (test concentration not listed) | Q15475+O00167 | 360,000 compounds, 0.56% hits | AID 651725; in the data active = activity change below about -65%; inconclusive = about -30% to -65%; inactive = above about -30%; also: % is scaled to controls: 0 for no effect and ±100 for the full control effect
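Homogeneous AlphaScreen proximity assay pairing GST-Six1 with His-tagged Eya2 (added as 5X mix: 250 nM and 500 nM) in 50 mM Tris pH 8.0, 300 mM NaCl, 1 mM TCEP. Glutathione donor and nickel acceptor beads; 1 h, 37 °C, dark.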
PINK1 modulator = modulators of PINK1 expression; PINK1 immunofluorescence, high-content cytometry, 24 h; Potency, µM (top dose mostly 76.6 µM), for inactives: top-dose activation (PINK1 increase), actives largely listed as activators; 410,000 compounds, 0.2% hits; AID 624263; active = well fitted activation curve with a large enough effect; inconclusive = small, poorly fitted or top-dose-only effect; inactive = flat fitted curve, though single readings scatter; cell line not stated here;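 also: potency is read from the fitted curve at half-maximal effect; % of control where 0% means no effect; nearly all actives have a fitted effect of over 65% in size; a mitochondrial uncoupler was the plate control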
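A stable cell line was treated with compounds at 5 concentrations for 24 hours, with CCCP as control. PINK1 levels and mitochondrial localization were measured by immunofluorescence with mitochondrial, cell and nuclear markers after fixation, read by laser-scanning cytometry.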
TRPML1 ag = human mucolipin-1 channel agonism; Q9GZU1; TRPML1-expressing cells, Ca2+ dye fluorescence, FDSS; host cell line not named in the record; reference of the full effect not given here; activation, % (test concentration not listed); 410,000 compounds, 0.12% hits; AID 624414; in the data active = activation above about 50%; inconclusive = about 30% to 50%; inactive = below about 30%; also: 0% is about no effect; the text of the record puts the active cut at 80%
Target sequence (Q9GZU1 whole entry, looked up): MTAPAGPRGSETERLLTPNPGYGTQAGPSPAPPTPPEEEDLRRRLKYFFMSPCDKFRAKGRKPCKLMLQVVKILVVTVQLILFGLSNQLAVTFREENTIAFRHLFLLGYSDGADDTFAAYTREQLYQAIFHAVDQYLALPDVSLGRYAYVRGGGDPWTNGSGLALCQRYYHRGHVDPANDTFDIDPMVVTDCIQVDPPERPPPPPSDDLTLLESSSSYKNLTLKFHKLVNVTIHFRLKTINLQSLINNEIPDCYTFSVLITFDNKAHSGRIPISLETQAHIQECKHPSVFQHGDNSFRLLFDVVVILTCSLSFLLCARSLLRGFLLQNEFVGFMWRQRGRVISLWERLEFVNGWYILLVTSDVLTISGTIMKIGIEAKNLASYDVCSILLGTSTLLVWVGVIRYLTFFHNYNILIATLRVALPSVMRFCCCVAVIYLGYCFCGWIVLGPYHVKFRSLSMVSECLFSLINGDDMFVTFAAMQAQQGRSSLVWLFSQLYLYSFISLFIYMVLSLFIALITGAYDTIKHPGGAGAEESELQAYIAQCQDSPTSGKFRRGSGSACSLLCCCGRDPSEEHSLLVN
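Calcium fluorescence on an FDSS kinetic reader gave the read-out. Tet-induced TRPML1-DL cells were plated overnight, dye-loaded (Ca8 with quencher, 45-90 min, room temperature, dark), then read 110 s after compound addition, and again 110 s after 4uM final 54-4 (EC80).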
* marks the source's active call; other numbers are inactive results; ? = inconclusive; . = no result given; & = joins results of further samples; [ ] = remark or other dose. Not a hit list (roughly 1.3% active in at least one column).

SMILES	D2 ag	D2 PAM	CtBP-E1A blk	Six1-Eya2 inh	PINK1 modulator	TRPML1 ag
CC1(C)CC(NC(=O)COc2ccc(Br)cc2Cl)CC(C)(C)N1	-0.8	-6	3	2	-1.8%	0.3
O=C(Cn1cc(C(F)(F)F)ccc1=O)N1CCN(S(=O)(=O)c2ccccc2)CC1	-0.1	11	4	-3	-2.0%	0.7
O=C(CN1CCOCC1)Nc1ccc(Cl)cn1	-3.1	-4	6	7	1.5%	-0.2
COc1ccc(S(=O)(=O)N2CCCC(C(=O)Nc3ccc4c(c3)OCCO4)C2)cc1 (stereo not drawn)	-1.0	-6	7	-10	.	2.0
O=C(Cn1cnc([N+](=O)[O-])c1)NC1CCCC1	4.8	1	0	3	-0.2%	0.4
Cc1ccc(NC(=O)CN(C)C(=O)C(Sc2ccccc2)c2ccccc2)cc1 (stereo not drawn)	5.1	-5	-3	-2	7.6%	-0.2
O=C(Nc1ccc(C(=O)Oc2ccccc2)c(O)c1)c1ccccc1	4.2	2	8	9	1.4%	2.2
COc1ccccc1C1=Nn2c(nnc2C2CCCCC2)SC1	-1.6	?	1	-1	-0.2%	1.0
CCN(CC)c1ccc(C(=O)NNC(=O)CCc2nc3ccccc3c(=O)[nH]2)cc1	-1.5	-8	-7	0	0.4%	-0.5
COc1cccc2c1Oc1ncccc1N(C(=O)CCC(=O)NCc1ccccc1Cl)C2	1.8	-6	.	4	2.2%&-0.9%	0.5&1.5
COc1ccc(CN(C)C(=O)CNC(=O)CNC(=O)c2ccc(Cl)cc2Cl)cc1F	1.8	-3	-2	5	-0.8%	-0.7
O=c1c2ccccc2[nH]c(=S)n1CCN1CCc2ccccc2C1	0.0	-14	-1	-11	2.9%	0.2
CC1=CC(C)(C)N(C(=O)CSc2nnc(N)s2)c2ccccc21	-1.9	-15	-6	1	1.1%	-0.2
COC(=O)C=C1CCC2C3CC(F)C4(O)CC(=O)CCC4(C)C3C(=O)CC12C (stereo not drawn)	0.3	1	2	1	-2.3%	-0.3
C=CCn1c(-c2sccc2C)n[nH]c1=S	-1.0	-24	1	-1	-1.3%	-0.7
CC(=O)Nc1ccc(Oc2cc(C#N)c(C#N)cc2N2CCCCCC2)cc1	-1.4	19	3	-4	-0.8%	0.0
Cc1ccccc1Oc1ccc2c(c1)[C@@H]1C[C@H](N(C)C(=O)NC3CCCCC3)[C@H]([C@H](C)O)C(=O)N1CC2	0.9	-5	0	-3	0.3%	1.3
CC(C)C(=O)Nc1ccc(C(=O)Nc2ccc(Br)cc2F)cc1	2.6	1	6	-2	2.9%	0.5
COc1ccc(CN(CCC#N)C(=S)NC(=O)c2ccccc2)cc1	-1.5	-15	2	2	-1.4%	-0.1
Nc1ncnc2c1ncn2[C@@H]1O[C@H](CNCc2ccc(-c3cc(C(F)(F)F)ccc3Cl)o2)[C@@H](O)[C@H]1O	-0.7	.	-4	-2	2.2%	-0.6
CCOC(=O)C1(C)NC(c2cccs2)C2C(=O)N(c3ccc(C)cc3)C(=O)C21 (stereo not drawn)	-1.3	-5	0	9	-0.2%	1.0
CN(C)/C=C/C(=O)c1ccn(S(=O)(=O)c2ccccc2)c1	3.3	-1	6	-1	-1.9%	1.4
COC(=O)c1ccc(CN2C(=O)C3CCCCC3C2=O)o1 (stereo not drawn)	-2.1	-2	10	-1	1.2%	-0.2
O=C1N/C(=C/c2ccc(Br)cc2)C(O)=C1C=NCc1ccccc1	-0.4	5	9	5	12%	0.0

Ordered by value in Six1-Eya2 inh (high to low): 4 from the list above.
| structure | D2 ag | D2 PAM | CtBP-E1A blk | Six1-Eya2 inh | PINK1 modulator |
| --- | --- | --- | --- | --- | --- |
| O=C1N/C(=C/c2ccc(Br)cc2)C(O)=C1C=NCc1ccccc1 | -0.4 | 5 | 9 | 5 | 12% |
| C=CCn1c(-c2sccc2C)n[nH]c1=S | -1.0 | -24 | 1 | -1 | -1.3% |
| CC(C)C(=O)Nc1ccc(C(=O)Nc2ccc(Br)cc2F)cc1 | 2.6 | 1 | 6 | -2 | 2.9% |
| Cc1ccccc1Oc1ccc2c(c1)[C@@H]1C[C@H](N(C)C(=O)NC3CCCCC3)[C@H]([C@H](C)O)C(=O)N1CC2 | 0.9 | -5 | 0 | -3 | 0.3% |

More records.
SMILES	D2 ag	D2 PAM	CtBP-E1A blk	Six1-Eya2 inh	PINK1 modulator	TRPML1 ag
COC(=O)c1ccc(CN2[C@H](C(=O)OC)C[C@@]3(O)[C@H](O)[C@H](O)[C@H](O)C[C@@H]23)cc1	0.5	-2	2	-4	-1.5%	-0.8
COc1cccc(SCc2noc(C(=O)NCC3CC3)c2C(=O)NCC2CC2)c1	-3.6	-9	7	2	0.2%	1.7
COc1ccc(C(CC(=O)O)NC(=O)C2CCCCC2)cc1 (stereo not drawn)	-1.8	-3	10	2	-1.4%	-1.0
Cc1ccc2nc(SCc3ccc([N+](=O)[O-])cc3)nc(C)c2c1	-2.3	-4	5	-1	24%[38.3 µM]	1.9
CCOC(=O)CN1C(=O)N2C[C@H]3CON(C)[C@H]3C[C@H]2c2ccccc21	-5.5	-3	3	2	2.1%	-0.3
CCCCc1ccc(-c2ccc(Br)cc2)nc1	-0.3	-7	81	72	3.2%[38.3 µM]	-0.6
COc1ccc(Br)cc1C(=O)Nc1cc(C)cc(C)c1	3.5	-2	12	15	16%	-0.2
CC(C)N1CCCC(C)(C(=O)Nc2ccccc2)C1 (stereo not drawn)	-3.2	2	13	9	2.1%	-0.3
Cc1ccc(C)c(N2CCN(c3ccc(N4C(=O)COCC4=O)cc3[N+](=O)[O-])CC2)c1	-1.4	-7	-1	2	8.4%	0.6
CN(C)S(=O)(=O)n1cnc([C@H]2c3c(ncn3Cc3ccccc3)C[C@H]3COC(=O)[C@@H]32)c1	-4.9	-3	2	-3	-1.3%	-0.7
Cc1ccc(N(O)C(=O)NCCCCNC(=O)N(O)c2ccc(C)cc2)cc1	?	5	1	4	0.6%	-0.1
O=C(CNC(=O)c1ccc(Br)cc1)NCC(=O)OCc1ccc(Cl)cc1	1.3	-5	.	2	-0.3%	1.7
COc1ccccc1Nc1ncnc2c1cnn2-c1cccc(C)c1	-4.5	-2	-2	1	6.4%	-0.2
COc1cc(SC)ccc1C(=O)N1CCN(c2ccccc2)CC1	-1.8	5	-10	-5	3.3%	3.5
O=C(COC(=O)/C=C/c1cccc(F)c1)Nc1ccccc1	0.9	-5	20	14	19%	1.6
COc1cc2nc(C3CCC3)nc(N3CCN(c4ccccc4OC)CC3)c2cc1OC	-5.8	-32	-10	-28	-4.6%	0.2
Cc1cc(C)c2c(N)c(C(=O)c3ccc(Cl)cc3)sc2n1	-1.6	-4	12	7	4.9%	-0.3
COc1cc(CNn2c(C)n[nH]c2=S)cc(Br)c1OCc1ccc(F)cc1	5.0	-11	-6	-5	2.9%	1.7
COc1ccc(CNC(=O)c2ccc(N(C)S(=O)(=O)c3ccc(C)cc3)cc2)cc1	-0.4	15	0	6	0.7%	2.8
O=C(N/N=C1\CCc2ccccc21)c1ccccc1Cl	-5.3	-2	-8	0	3.7%	-0.7
CCCn1nc(C(=O)OCC(=O)Nc2ncc(Cl)c(C)c2Cl)c2ccccc2c1=O	-4.6	-7	-16	6	-1.2%	3.0
O=C(CSc1ccccn1)N1CCCC(Nc2ccc(F)c(F)c2)C1 (stereo not drawn)	-3.7	-28	3	-2	1.4%	1.3
CS(=O)(=O)N1N=C(c2ccccc2)CC1c1ccc2nccnc2c1 (stereo not drawn)	-1.5	0	0	24	-1.2%	-1.7
Cn1cccc1C(=O)NC(=O)CSc1cccc[n+]1[O-]	-0.3	15	2	-1	-1.1%	0.3
COCCN(Cc1cn(C)nc1-c1ccccc1F)C(C)C	-2.5	-5	0	9	0.1%	0.2
COc1ccc(-c2coc3c(CN4CCOCC4)c(O)ccc3c2=O)cc1	-0.3	-4	5	0	2.5%	-0.2
COC(=O)c1ccc(NC(=O)CCn2c(=O)oc3ccccc32)cc1	-2.5	3	-3	5	-0.7%	0.1
O=C1Nc2ccccc2C1c1ncc(C(F)(F)F)cc1Cl (stereo not drawn)	1.4	-6	.	-1	0.4%	3.6
Cc1ccc(C23CC4CC(CC(NC(=O)NC(C)(C)CO)(C4)C2)C3)cc1	-2.0	0	7	-2	.	0.0
C=CCNc1nc(-c2c(C)nc3sccn23)cs1	1.6	6	-6	-9	-0.2%	-1.2
CCn1cc(/C=N\NC(=O)COc2cccc(C)c2C)c(C)n1	-4.0	-1	2	-6	-0.2%	-0.5
CC(NC(=O)C12CC3CC(CC(C3)C1)C2)C(=O)NCCN(C)C (stereo not drawn)	-5.2	-11	0	22	-1.0%	-0.5
O=C(COc1ccccc1Cl)Nc1ccc2c(c1)OCO2	-5.6	-4	-3	-3	7.0%	0.9
c1ccc2[nH]c(CSc3nnc(-c4ccncc4)o3)nc2c1	-2.7	26	5	-19	3.2%	4.4
O=C(COC(=O)c1ccncc1)Nc1cccc2ccccc12	2.2	-4	.	-4	2.9%	-1.1
COc1cccc(CN2CCC(CO)(CC3CCCCO3)CC2)c1 (stereo not drawn)	-6.7	2	1	14	0.1%	0.3
O=C(Nc1ccccc1)N(CCCN1CCOCC1)Cc1ccccc1F	-3.5	-32	4	-4	-2.6%	-0.4
NS(=O)(=O)c1cccc(C(=O)NC2CCSc3ccccc32)c1 (stereo not drawn)	-1.9	-6	9	4	3.4%	0.0
COc1cc(F)ccc1-c1cc(C(=O)Nc2cc(OC)c(OC)c(OC)c2)[nH]n1	7.5	-5	-14	-3	5.4%	-0.9
COc1ccc(/C=N/Nc2nc(NCc3ccco3)nc(Nc3ccc(OC)cc3)n2)cc1	-2.5	-8	4	0	-1.3%	2.1
Cc1ccc(NC(=O)Cc2ccccc2F)cc1S(=O)(=O)N1CCCCCC1	-5.9	-13	10	-2	4.3%	0.4
COc1ccc(C(=O)NCc2csc(-c3cccs3)n2)cc1	-5.5	-29	.	3	0.3%	-0.9
CCOc1ccc(NC(=O)C(C)C(Cc2ccc(C)cc2)C(=O)O)cc1 (stereo not drawn)	-0.3	-10	.	3	0.6%	0.1
CC(=O)Nc1cccc(C(=O)OCC(=O)NNC(=O)c2cccs2)c1	0.1	-6	-23	-2	2.4%	0.1
c1coc(-c2nc3ccccc3s2)c1	-0.5	-9	4	5	2.2%	-0.1
CCOC(=O)C1=C(C)N=c2sc(=Cc3ccc(OCC(=O)O)cc3)c(=O)n2C1c1ccc(SC)cc1 (stereo not drawn)	4.1	-7	-13	?	-0.3%	3.1
CC(=O)[C@H]1[C@@H]2C(=O)N(c3cccc(Cl)c3)C(=O)[C@@H]2[C@H]2c3ccccc3C=CN21	-1.2	-10	4	15	3.4%	0.5
C=CCOc1cccc(C(=O)N2CCC(CCC(=O)NC3CC3)CC2)c1	2.8	-6	.	-17	0.2%	-0.8
CCN(Cc1ccccc1)C(=O)CCS(=O)(=O)c1ccc2c(c1)n(C)c(=O)c(=O)n2C	-1.6	0	-1	-1	0.5%	0.7
CC(C)COc1cccc(-c2cc(C(=O)N/N=C/c3ccncc3)c3ccccc3n2)c1	1.7	-2	2	-1	4.0%	-0.3
